Sfp inh = blocks B. subtilis Sfp PPTase activity; Q9F4F7; Biochemical Sfp PPTase activity, qHTS; Potency, µM, for the others: max response, negative = inhibition, hits mostly inhibitors; hit rate 3.5% among 310,000; AID 1490; active means well fitted inhibition curve with a large enough effect; inconclusive means small, poorly fitted or top-dose-only effect, or another doubt; inactive means no such curve, though single readings can be large or run the other way;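 further: the enzyme is Sfp with the accession as filed and its product quenches rhodamine fluorescence; potency means the concentration at half of the fitted maximal effect; 0% = enzyme reaction without inhibitor and -100% = no enzyme wells; top concentration of the series not given in the record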
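Reaction rates are the 30-min fluorescence difference (ex 525, em 598 nm) in wells containing 15 nM Sfp, 5 uM rhodamine-CoA and 12.5 uM BHQ-2-YbbR at pH 7.6 with 10 mM MgCl2.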
D2 potentiator = potentiates the human D2 dopamine receptor allosterically. P14416. potentiation, % (no concentration beside the values). hit rate 0.23% among 360,000. DiscoveRx D2 beta-arrestin cells, luminescence, 90 min; 100% = 57 uM dopamine signal. AID 624464; active = potentiation of 50% or more; inconclusive = 30% to 50%; inactive = 30% or less;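 further: compound concentration not given in the record; tested on top of an EC20 dose of dopamine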
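PathHunter D2 cells, attached overnight at 37 deg C, received compound in DMSO plus dopamine at EC20 (50 nM final) for 90 min at 37 deg C. Beta-arrestin recruitment was read as luminescence after 1 h with detection reagent at ambient temperature.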
PINK1 modulator = modulators of PINK1 expression; PINK1 immunofluorescence, high-content cytometry, 24 h; Potency, µM (series often up to 76.6 µM), inactives show at the highest dose activation (PINK1 increase), hits mostly activators; hit rate 0.2% among 410,000; active = well fitted activation curve with a large enough effect; inconclusive = small, poorly fitted or top-dose-only effect; inactive = flat fitted curve, though single readings scatter; cell line not stated here;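 further: potency means the concentration at half of the fitted maximal effect; % of control where 0% means no effect; nearly all actives have a fitted effect of over 65% in size; a mitochondrial uncoupler was the plate control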
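Cells are seeded, rested 12 hours, then given compound at five concentrations or DMSO for 24 hours. After fixation, blocking and antibody staining, PINK1 amount and mitochondrial localization are scored; CCCP serves as control.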
CtBP-E1A blk = blocks the CtBP interaction with E1A; AlphaScreen GST-E1A/His-CtBP binding, 1536-well; hits give low values; control for the full effect not named in the record; activity change, % (test concentration not listed); hit rate 0.49% among 340,000; AID 651724; in the data active means activity change below about -65%; inconclusive means about -30% to -65%; inactive means above about -30%; further: on the % scale 0 is the no-effect control and ±100 the full control effect; compound concentration not given in the record
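In 5 uL wells, 23 nL compound meets equimolar GST-E1A and His-CtBP (5X stock 125 nM each) for 2 h, 37 °C. Beads (5X, 50 ug/mL) then 1 h, 37 °C, dark.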
TRPV1 PAM = enhances activation of the human vanilloid receptor TRPV1. Q8NER1. TRPV1-expressing cells, Fluo-8 calcium influx, capsaicin EC20 potentiation; host cell line not named in the record; control for the full effect not named in the record. potentiation, % at 8.33 µM. hit rate 0.02% among 320,000. AID 540277; active means potentiation above 80%; inconclusive means 30% to 80%; inactive means below 30%; further: 0% is about no effect
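Fluo-8 calcium influx in TRPV1-expressing cells, kinetic read (ex 480/em 520 nm). Compound added and read 3 min for agonist activity, followed by capsaicin at EC20 final and 2 min further read for enhancement.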
Six1-Eya2 blk = blocks human Six1 binding to Eya2; Q15475+O00167; AlphaScreen GST-Six1/His-Eya2 binding, biochemical; hits give low values; control for the full effect not named in the record; activity change, % (concentration not given with the values); hit rate 0.56% among 360,000; AID 651725; in the data active = activity change below about -65%; inconclusive = about -30% to -65%; inactive = above about -30%; further: on the % scale 0 is the no-effect control and ±100 the full control effect
Target sequence (O00167 whole entry, looked up): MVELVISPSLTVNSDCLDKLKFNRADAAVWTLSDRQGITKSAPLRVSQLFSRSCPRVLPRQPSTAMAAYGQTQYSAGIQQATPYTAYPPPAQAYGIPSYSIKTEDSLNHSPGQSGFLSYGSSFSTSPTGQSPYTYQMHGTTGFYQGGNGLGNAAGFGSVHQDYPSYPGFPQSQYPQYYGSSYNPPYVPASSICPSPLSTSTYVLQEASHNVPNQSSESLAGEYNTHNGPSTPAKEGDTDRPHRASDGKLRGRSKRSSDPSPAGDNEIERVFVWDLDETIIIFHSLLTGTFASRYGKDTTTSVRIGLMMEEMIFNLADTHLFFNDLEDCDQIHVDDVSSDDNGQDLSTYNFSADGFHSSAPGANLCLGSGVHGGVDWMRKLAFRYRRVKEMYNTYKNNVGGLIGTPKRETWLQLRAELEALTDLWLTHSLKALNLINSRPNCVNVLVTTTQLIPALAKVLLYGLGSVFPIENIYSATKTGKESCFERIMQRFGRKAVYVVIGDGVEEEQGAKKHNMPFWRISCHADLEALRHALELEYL
Target sequence (Q15475 whole entry, looked up): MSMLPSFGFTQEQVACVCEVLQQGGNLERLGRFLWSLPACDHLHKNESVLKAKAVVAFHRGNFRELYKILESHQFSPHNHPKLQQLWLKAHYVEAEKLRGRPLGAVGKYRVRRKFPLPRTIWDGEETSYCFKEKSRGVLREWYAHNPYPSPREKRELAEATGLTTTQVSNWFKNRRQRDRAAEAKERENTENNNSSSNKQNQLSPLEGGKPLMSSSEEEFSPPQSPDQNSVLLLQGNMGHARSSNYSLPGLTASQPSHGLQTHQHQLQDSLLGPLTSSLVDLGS
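Compounds are tested against tagged Six1 and Eya2 proteins bridged by glutathione donor and nickel acceptor beads; after a one-hour incubation at 37 °C without light, AlphaScreen emission is recorded.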
D2 ag = human D2 receptor agonism in beta-arrestin assay | activation, % (no concentration beside the values) | hit rate 0.084% among 360,000 | DiscoveRx PathHunter D2 beta-arrestin, luminescence, 90 min; 100% = 57 uM dopamine signal; in the data active = activation above about 40%; inconclusive = about 15% to 40%; inactive = below about 15%; further: compound concentration not given in the record; the text of the record calls up to 30% inactive
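Agonist mode: compounds alone added to overnight-plated D2 PathHunter cells for 90 min at 37 C, with 57 uM final dopamine (EC100) defining full response. Beta-arrestin recruitment detected by chemiluminescent reagent, read after 1 h at ambient temperature.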
An asterisk follows results filed as active; ? = inconclusive; nt = not tested or not shown; & = joins results of further samples; [ ] = dose if it differs, or a comment.

The first three records (preview)
SMILES	Sfp inh	D2 potentiator	PINK1 modulator	CtBP-E1A blk	TRPV1 PAM	Six1-Eya2 blk	D2 ag
Cc1ccc(-c2nnn(CC(=O)N(c3ccccc3)C(C(=O)NC3CCCC3)c3ccco3)n2)o1 (stereo not given)	8.4%	-5.5	?	9.2	8.4	5.0	0.4
Cc1ccc2nc(SC(C)C(=O)N3CCCC3)[nH]c2c1 (stereo not given)	9.4%	-16.9	-1.4%	1.8	2.4	5.9	-3.6
COc1cccc(-n2nnc3c(=O)n(CC(=O)Nc4ccc(C)cc4)cnc32)c1	20.9%	2.0	0.0%	0.0	-3.0	0.9	-4.4

Main list, previewed entries included:
SMILES	Sfp inh	D2 potentiator	PINK1 modulator	CtBP-E1A blk	TRPV1 PAM	Six1-Eya2 blk	D2 ag
Cc1ccc(-c2nnn(CC(=O)N(c3ccccc3)C(C(=O)NC3CCCC3)c3ccco3)n2)o1 (stereo not given)	8.4%	-5.5	?	9.2	8.4	5.0	0.4
Cc1ccc2nc(SC(C)C(=O)N3CCCC3)[nH]c2c1 (stereo not given)	9.4%	-16.9	-1.4%	1.8	2.4	5.9	-3.6
COc1cccc(-n2nnc3c(=O)n(CC(=O)Nc4ccc(C)cc4)cnc32)c1	20.9%	2.0	0.0%	0.0	-3.0	0.9	-4.4
O=C(CCC(=O)OCC(F)(F)C(F)F)Nc1ccc(F)cc1F	11.0%	3.4	0.5%	-0.3	2.6	9.1	-1.4
CCc1ccc(NC(=O)NNC(=O)CCc2ccccc2)cc1	21.6%	5.3	-0.5%	4.7	-1.9	0.0	-1.6
COC(=O)c1ccc(NC(=S)NCCCN2CCCC2=O)cc1	2.2%	-4.7	7.7%	6.4	-6.3	7.2	-0.3
Cc1ccc(S(=O)(=O)CCC(=O)Nc2ccc(Br)cc2)cc1	5.9%	-17.3	0.8%	-14.8	-28.6	3.4	2.4
CN(C)CCCNc1oc(-c2ccccc2Cl)nc1S(=O)(=O)c1ccccc1	nt	-2.0	1.2%	-15.8	-17.8	-10.5	-2.1
O=C(Nc1ncccn1)c1ccc(Cl)c([N+](=O)[O-])c1	15.8%	-4.1	1.1%	-16.7	-0.7	2.9	2.2
COc1ccccc1/C=C1\SC(=O)N(CC(=O)NCCCn2ccnc2)C1=O	-9.2%	-8.4	1.4%	2.0	-6.9	-8.8	2.4
O=C(NC(=S)Nc1cccnc1Cl)c1ccc(F)cc1	-24.0%	-12.4	4.2%	-11.1	-14.6	0.8	-5.3
O=C(NNC1=C(C(=O)C(F)(F)F)CCC1)c1cccnc1	27.8%	-4.3	1.2%	0.0	-6.5	0.5	-0.3
COc1ccc(C(=O)C2CCCN(C(=O)CCc3ccccn3)C2)c(C)c1 (stereo not given)	11.6%	6.7	-0.9%	6.8	-24.4	3.7	1.6
CCOCCCNC(=S)NCCCNc1nc2c(C)c(C)ccc2cc1C#N	?	-21.5	29.4%	8.0	6.8	12.2	-1.9
CCCCn1c(N)c(N(C)C(=O)CCCn2c(=O)oc3ccccc32)c(=O)[nH]c1=O	nt	-10.1	0.7%	3.2	nt	3.2	-1.2
CCN(CC)NC(=S)Nc1ccccc1	8.2%	-11.4	3.4%[38.3 µM]	2.5	nt	-1.1	-1.1
Cc1cc(-n2cnc(-c3cn(C)nc3C)n2)no1	6.4%	-1.2	0.2%	0.1	3.1	-0.1	0.9
Cc1cccc(C(=O)NCC(=O)N2CCN(S(=O)(=O)c3ccc4c(c3)OCCO4)CC2)c1	nt	-3.0	-0.2%	8.0	5.5	2.5	0.6
c1cc(Nc2cccc3nccnc23)c2nccnc2c1	4.1%	-2.3	1.3%	-0.6	25.7	-14.0	-2.8
O=C(COC(=O)c1ccc(F)cc1Cl)Nc1cccc(S(=O)(=O)N2CCOCC2)c1	nt	-2.1	2.3%	-5.9	-1.5	-1.3	-2.4
Cc1cc(N)ncc1[N+](=O)[O-]	nt	-2.1	0.0%	-1.9	nt	-0.3	-2.5
COc1ccc(C(=O)/C=C/c2cccc(OCc3ccccc3)c2)cc1CSCC(=O)O	-20.4%	3.7	-1.4%	-2.8	19.6	-8.8	0.4
Cc1c(CC(=O)NCCCO)c(=O)oc2cc3c(cc12)CCC(C)(C)O3	15.7%	-0.8	3.4%	nt	-11.0	-3.0	0.7
CCc1ccc(N/C(=N/c2nc(C)cc(C)n2)NC(C)=O)cc1	-3.0%	-4.0	4.3%	0.2	-26.1	1.1	-3.5
O=C(CCc1ccc(S(=O)(=O)N2CCOCC2)cc1)N1CCCC1	5.3%	-11.6	4.8%[38.3 µM]	2.3	-12.7	0.3	-1.8
CC1=Nc2cc(C(=O)N3CCCCC3)ccc2Sc2ccc(C)cc21	-4.8%	-4.6	0.0%&2.0%	-3.0	-15.1	-3.2	1.0
CCNc1nc(SCCOc2ccc(C)cc2)nc(N(C)C)n1	0.8%	-1.7	6.7%	9.0	?	1.6	0.0
CCc1nc2ccccc2c(C(=O)Oc2cccc3cccnc23)c1C	-21.4%	-10.3	3.6%	-0.4	0.2	-2.1	-5.1
C/C=C(\CS(=O)(=O)c1ccccc1)S(=O)(=O)c1ccccc1	-17.7%	-28.4	-2.1%	10.8	-2.2	-0.4	-4.2
CC1(C)Cc2c(c(-c3ccccc3)[nH]c(=O)c2C#N)CS1	9.7%	-1.8	-1.5%	-0.1	-3.2	9.8	-2.0
O=C(Cc1ccc([N+](=O)[O-])cc1)Nc1ccc2c(c1)OCO2	15.1%	-3.2	16.1%	2.6	-25.6	1.2	-2.5
Cc1csc(NC(=O)c2ccco2)c1C(=O)c1ccccc1	18.1%	-8.0	8.6%	-11.8	25.1	-0.8	5.6
Cc1cc(N(C)C)c(C#N)c(=O)[nH]1	7.1%	-1.2	0.7%	-0.8	-6.1	-0.3	-2.0
CCOC(=O)N1CCN(S(=O)(=O)c2ccc(C)c([N+](=O)[O-])c2)CC1	-8.8%	-5.0	-1.1%	0.0	-21.7	0.1	-20.2
NS(=O)(=O)c1ccc(CCNC(=O)c2cccc(S(=O)(=O)N3CCc4ccccc43)c2)cc1	nt	-3.7	2.2%	-1.9	nt	-1.1	2.9
COc1ccc(Cl)cc1N1CC(C(=O)Nc2nccs2)CC1=O (stereo not given)	-11.5%	3.3	12.3%	2.5	11.9	-0.8	-1.3
c1ccc(-c2nc3nonc3nc2-c2ccccc2)cc1	-7.3%	74.2*	-0.6%	?	-0.5	-26.3	?
Cc1ccc(N(CC(=O)NCc2ccccc2)C(=O)c2csnn2)c(C)c1	1.9%	-4.8	-1.7%	-0.4	0.4	-1.9	-0.3
O=C(c1cc2c(s1)-c1ccccc1S(=O)(=O)C2)N1CCCC1	-9.0%	12.7	2.5%	-15.7	-13.6	1.6	5.9
CCOc1ccc(/C=C/C(=O)C(C(N)=O)=C2SCCS2)cc1	14.0%	-9.1	-2.8%	0.0	12.2	20.3	-1.2
Cc1nc(C)c(-c2ccc(SCc3cccc(F)c3)nn2)s1	-21.4%	-1.7	3.4%	nt	-8.1	-3.9	1.5
CCC(CO)[n+]1c(C)cc(/C=C2\Sc3ccccc3N2Cc2ccccc2)cc1C (stereo not given)	35.5µM*	-36.6	11.2µM*	20.4	15.1	16.3	-6.2
Cc1ccc(NC(=O)CSc2ccc(-c3cccnc3)nn2)cc1	5.8%	-5.9	0.6%	-5.4	-4.1	6.9	-3.4
O=C(COc1ccc(-c2ccccc2)cc1)Nc1cccnc1	nt	-4.7	0.9%	7.5	-14.5	-0.9	9.1
O=C(CSc1nnc(Nc2ccccc2)s1)Nc1cccnc1Cl	5.1%	-5.0	-3.3%	5.0	5.1	-1.3	-1.7
O=C(C1CCCN(S(=O)(=O)c2cccc3cccnc23)C1)N1CCN(c2ccc(F)cc2)CC1 (stereo not given)	13.4%	-2.3	0.4%	-4.6	nt	-4.9	-0.2
C[C@H](NC(N)=O)C(=O)Nc1ccc2c(c1)OCO2	18.0%	-5.6	1.8%	-6.3	3.6	-5.2	-3.0
CS(=O)(=O)NCCOc1ccc(S(=O)(=O)NCCOc2ccccc2)cc1	15.1%	-0.6	-0.4%	nt	-23.5	5.0	8.0
CCOc1ccc(NC(=S)Nc2ccccc2C2(C)CC2)cc1	6.9%	3.5	7.1%	-1.8	15.0	-6.0	1.6
O=C(N/N=C/c1cn(-c2ccccc2)nc1-c1cccnc1)c1cccnc1	24.0%	7.1	1.9%	-9.3	3.0	-21.4	15.0
CCOC(=O)c1c(NC(=S)N2CCN(C)CC2)sc2c1CCN(C(=O)OCC)C2	?	-22.8	4.2%	-8.7	17.7	-15.3	-3.1
O=C(O)/C=C/C(=O)Nc1ccc(OC(F)F)cc1	23.9%	-4.2	5.1%	nt	0.0	-13.0	-4.6

Copied from the listing for reference:
SMILES	Sfp inh	D2 potentiator	PINK1 modulator	CtBP-E1A blk	TRPV1 PAM	Six1-Eya2 blk	D2 ag
Cc1nc(C)c(-c2ccc(SCc3cccc(F)c3)nn2)s1	-21.4%	-1.7	3.4%	nt	-8.1	-3.9	1.5
CCC(CO)[n+]1c(C)cc(/C=C2\Sc3ccccc3N2Cc2ccccc2)cc1C (stereo not given)	35.5µM*	-36.6	11.2µM*	20.4	15.1	16.3	-6.2
Cc1ccc(NC(=O)CSc2ccc(-c3cccnc3)nn2)cc1	5.8%	-5.9	0.6%	-5.4	-4.1	6.9	-3.4
O=C(COc1ccc(-c2ccccc2)cc1)Nc1cccnc1	nt	-4.7	0.9%	7.5	-14.5	-0.9	9.1
O=C(CSc1nnc(Nc2ccccc2)s1)Nc1cccnc1Cl	5.1%	-5.0	-3.3%	5.0	5.1	-1.3	-1.7
